Source: PubChem (National Center for Advancing Translational Sciences (NCATS))
ClpP mod: qHTS Assay for Activators of ClpP | Potency, µM (series often up to 57.5 µM), for the others: at the highest dose activity change, negative = active | purified B. subtilis ClpP, FRET peptide cleavage, 20 min | AID 651965, 2013 | ATP-dependent Clp protease proteolytic subunit (Bacillus subtilis (strain 168)), P80244 | actives 1.9% (n = 340,000); active = well fitted falling curve with a large enough effect; inconclusive = small, poorly fitted or top-dose-only effect; inactive = no such curve, though single readings can be large or run the other way; also: potency is read from the fitted curve at half-maximal effect; the source files actives as falling curves though it sought activators and does not explain the sign; nearly all actives have a fitted effect of over 65% in size; many hits overshoot -100%
Target sequence (P80244 whole entry, looked up): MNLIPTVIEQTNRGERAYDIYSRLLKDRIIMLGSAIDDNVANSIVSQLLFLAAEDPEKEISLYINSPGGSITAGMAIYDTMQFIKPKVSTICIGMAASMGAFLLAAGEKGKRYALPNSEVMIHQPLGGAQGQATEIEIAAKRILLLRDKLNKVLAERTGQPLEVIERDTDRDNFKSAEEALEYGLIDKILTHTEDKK
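FRET quenching reversal measured ClpP activation: 10 microg/mL B. subtilis ClpP at pH 8 with the FRET-FV decapeptide, read at 430 nm after 320 nm excitation. The 20-min minus 0-min signal was scaled between DMSO/no-enzyme wells and ADEP (5.8 microM final).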
Menin-MLL FL inh: qHTS Assay for Inhibitors Targeting the Menin-MLL Interaction in MLL Related Leukemias: Competition With Fluorescein Labeled MLL-derived Peptide; Fluorescence polarization, fluorescein-MLL peptide displacement from menin; FP activity change, % at 61.4 µM; 290,000 tested, under 10 active; AID 1766, 2009; inconclusive = falling polarisation curve, or a change in total fluorescence; inactive = total fluorescence flat and polarisation flat or rising; no compound was filed as active; the % refers to the polarisation; negative = inhibition;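 also: % of control where 0% means no effect; inhibitors lower the polarisation; unlabelled MLL peptide was the positive control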
TRPV1 PAM: HTS Assay for Compounds that Act as Potentiators of the Vanilloid Receptor 1 | TRPV1-expressing cells, Fluo-8 calcium influx, capsaicin EC20 potentiation; host cell line not named in the record; control for the full effect not named in the record | potentiation, % at 8.33 µM | actives 0.02% (n = 320,000); active means potentiation above 80%; inconclusive means 30% to 80%; inactive means below 30%; also: 0% is about no effect
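Cells expressing TRPV1 were dye-loaded with Fluo-8 and read kinetically: 10 s baseline, 3 min after compound (agonist portion), then 2 min after EC20 capsaicin (allosteric enhancer portion). Calcium-bound dye fluorescence at 480/520 nm.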
gsp antag: qHTS for Antagonists of gsp, the Etiologic Mutation Responsible for Fibrous Dysplasia/McCune-Albright Syndrome: qHTS; Potency, µM (doses to about 76.9 µM), for inactives: at the top dose activity change, negative = inhibition, hits mostly inhibitors; actives 0.4% (n = 340,000); gsp-mutant cells, cAMP HTRF, 30 min; control for the full effect not named in the record; active = falling curve of any shape with a large fitted effect; inconclusive = falling curve, mostly with a smaller effect; inactive = flat or rising curve; cell line not stated here;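 also: intracellular cAMP measured with PDE inhibitor Ro 20-1724 present during compound exposure; potency is read from the fitted curve at half-maximal effect; % is scaled to controls: 0 for no effect and ±100 for the full control effect; nearly all actives have a fitted effect of over 65% in size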
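HTRF cAMP measurement after 30 min RT detection following 30 min, 37C compound treatment alongside […] (added as 300 uM solution) in G418-selected cells seeded at 2000/well and grown 16–24 h.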
Sfp PPTase inh: qHTS Assay for Inhibitors of Bacillus subtilis Sfp phosphopantetheinyl transferase (PPTase); 4'-phosphopantetheinyl transferase ffp (Bacillus subtilis), Q9F4F7; Biochemical Sfp PPTase activity, qHTS; Potency, µM, inactives show max response, negative = inhibition, actives largely listed as inhibitors; actives 3.5% (n = 310,000); active = well fitted inhibition curve with a large enough effect; inconclusive = small, poorly fitted or top-dose-only effect, or another doubt; inactive = no such curve, though single readings can be large or run the other way;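 also: the enzyme is Sfp with the accession as filed and its product quenches rhodamine fluorescence; potency is read from the fitted curve at half-maximal effect; 0% = enzyme reaction without inhibitor and -100% = no enzyme wells; top concentration of the series not given in the record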
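Reaction rates are the 30-min fluorescence difference (ex 525, em 598 nm) in wells containing 15 nM Sfp, 5 uM rhodamine-CoA and 12.5 uM BHQ-2-YbbR at pH 7.6 with 10 mM MgCl2.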
D2 potentiator: Beta-Arrestin HTS for Positive Allosteric Modulators of the Human D2 Dopamine Receptor: Potentiators; DiscoveRx D2 beta-arrestin cells, luminescence, 90 min; 100% = 57 uM dopamine signal; potentiation, % (test concentration not listed); actives 0.23% (n = 360,000); active = potentiation of 50% or more; inconclusive = 30% to 50%; inactive = 30% or less;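 also: compound concentration not given in the record; tested on top of an EC20 dose of dopamine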
Target sequence (P14416 whole entry, looked up): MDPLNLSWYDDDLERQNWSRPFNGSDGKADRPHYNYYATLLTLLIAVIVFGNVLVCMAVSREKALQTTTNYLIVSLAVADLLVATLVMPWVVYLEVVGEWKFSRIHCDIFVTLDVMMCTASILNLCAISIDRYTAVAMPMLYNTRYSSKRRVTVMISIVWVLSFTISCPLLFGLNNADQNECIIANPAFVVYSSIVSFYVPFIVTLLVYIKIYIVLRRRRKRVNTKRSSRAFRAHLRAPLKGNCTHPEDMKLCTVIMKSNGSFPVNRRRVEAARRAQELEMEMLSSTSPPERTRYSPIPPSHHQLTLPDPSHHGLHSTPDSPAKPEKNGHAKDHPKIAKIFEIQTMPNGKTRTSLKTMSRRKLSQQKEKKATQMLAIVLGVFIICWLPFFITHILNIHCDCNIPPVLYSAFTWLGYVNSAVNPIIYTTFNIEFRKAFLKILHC
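D2 cells co-treated with compound plus 50 nM dopamine (EC20) for 90 min at 37 deg C to detect potentiation. Beta-arrestin recruitment was read as enzyme-fragment luminescence after 1 h at ambient temperature. Full response was set by 57 uM dopamine.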
gsp ag: qHTS for Agonist of gsp, the Etiologic Mutation Responsible for Fibrous Dysplasia/McCune-Albright Syndrome: qHTS. actives 0.13% (n = 340,000). Potency, µM (doses to about 76.9 µM), inactives show at the top dose activation (cAMP increase), most hits filed as activators. gsp mutant cells, cAMP HTRF, 30 min; control for the full effect not named in the record. AID 624287, 2012; active = well fitted activation curve with a large enough effect; inconclusive = small, poorly fitted or top-dose-only effect, or another doubt; inactive = no such curve, though single readings can be large or run the other way; cell line not stated here;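 also: phosphodiesterase inhibitor Ro 20-1724 added with compounds to block cAMP breakdown; potency is read from the fitted curve at half-maximal effect; nearly all actives have a fitted effect of over 60% in size; about a fifth of the inactives were tested at one dose only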
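Cells stably selected in G418 were plated at 2000/well, grown 16-24 hr, then given compounds in DMSO with the PDE inhibitor […] (300 uM solution added) for 30 min at 37C; cAMP was read by HTRF.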
Numbers without * were called inactive; u = inconclusive; x = not tested or not shown; & = joins results of further samples; [ ] = another dose, or the depositor's remark.

mol	ClpP mod	Menin-MLL FL inh	Sfp PPTase inh	TRPV1 PAM	D2 potentiator	gsp ag	gsp antag
COc1c(F)c(F)c(C(=O)Nc2ccc(NC(=O)c3ccco3)cc2)c(F)c1F	-6.0%	3.1	-2%	14	0	-5%	-3%
CC(C)=NNc1ncnc2nc[nH]c12	-2.6%	x	x	x	5	22%	5%
O=C(C/C(=N\NC(=O)c1ccccc1Br)C(F)(F)F)c1cccs1	0.2%	6.9	-9%	10	-15	23%	u
O=c1oc2c(CN3CCCCC3)c(O)ccc2c2c1CCCCC2	u	-0.6	4%	-12	-18	u	9%
Cc1cccc(N2CCN(S(=O)(=O)c3ccc(-c4cc(C)no4)s3)CC2C)c1 (stereo unspecified)	0.2%	0.0	13%	-7	-2	-12%	4%
COc1ccc(C(=O)NC(=O)COC(=O)C2CC2C)cc1 (stereo unspecified)	0.5%	x	x	x	-3	0%[15.4 µM]	7%
Cc1ccc(C2CC(C(F)(F)F)n3ncc(C(=O)NCc4ccco4)c3N2)cc1 (stereo unspecified)	-2.4%	1.8	15%	-3	-9	-65%[inhibitor]	0%
CCc1cccc(C)c1NC(=O)CSc1nc2ccc(N3C(=O)c4ccccc4C3=O)cc2s1	-1.7%	7.8	-3%	13	-16	24%	0%
CCc1ccc(NC(=O)NCCCN2CCCC2=O)cc1	-0.5%	-0.1	2%	3	-27	u	-3%
COc1ccc(-n2c(C)cc(/C=C3\SC(=S)NC3=O)c2C)cc1	2.3%	u	2%	22	-10	-1%	-11%
CN(C)c1cccc(-c2nnc(SCCCC#N)o2)c1	-10%	1.5	u	3	-2	-11%	-14%
CC(C)CCN(CCC(C)C)CC(O)Cn1c2ccccc2c(=O)c2ccccc21 (stereo unspecified)	-27%	3.2	9%	x	-17	-6%	3%
CCOC(=O)c1c(C(C)(C)C)oc2ccc(OCC#N)cc12	-1.7%	4.6	7%	0	6	3%	5%
C=CCOc1c2ccc(C(=O)NCc3ccc(C)cc3)cc2nn1C	-14%	3.7	18%	28	-8	u	3%
COC(C[C@@H](O)CC(=O)[C@H](C)OCc1ccccc1)OC	-0.4%	1.8	2%	-26	-5	5%	13%
CCn1cc(CCC(=O)NCc2cccc(OC)c2OC)c2ccccc21	-1.3%	-0.3	-5%	-18	-5	-9%[15.4 µM]	-5%
CCCCNC(=S)N(C)/N=C/c1c(F)c(F)c(F)c(F)c1F	2.9%	-2.3	-6%	-1	-9	-5%	3%
O=C(NCc1ccccn1)c1cc(-n2cnnc2)ccc1Cl	-1.3%	-0.8	6%	25	8	0%	10%
CCOC(=O)Cc1cnc(NC(=O)c2ccccc2)s1	-0.3%	3.9	-40%	-19	-9	10%	-7%
Cc1ccc(S(=O)(=O)Nc2cccc(C(=O)NCC3(N4CCCCC4)CCCCC3)c2)cc1F	x	x	x	11	-69	-7%[15.4 µM]	3%
Cc1cc(NC(=O)CCC(=O)N(c2ccccc2)C2(C(=O)NC3CCCCC3)CCCC2)no1	1.1%	-5.4	10%	-2	-23	-7%	-2%
COC(=O)C(C)n1nnc2sc(-c3ccccc3)cc2c1=O (stereo unspecified)	-2.6%&4.3%	-1.9	-6%	4	-3	-24%	7%
COc1ccc(-c2noc(CN(C)C(=O)c3ccoc3C)n2)cc1	x	1.8	12%	-14	-2	-46%[inhibitor]	4%
CCCCCCn1c(=O)n2n(c1=O)[C@@H]1CN(S(=O)(=O)c3ccc(C)cc3)C[C@]1(O)[C@@H](OC(=O)NCc1ccccc1)C2	0.7%	x	x	x	4	u	x
CCC(C)(C)NC(=O)C(c1ccncc1)N(Cc1cccs1)C(=O)Cn1nnc2ccccc21 (stereo unspecified)	2.0%	5.1	12%	14	5	-26%	-16%

Next part
mol	ClpP mod	Menin-MLL FL inh	Sfp PPTase inh	TRPV1 PAM	D2 potentiator	gsp ag	gsp antag
COCC(C)NC(=O)c1cc2cccc([N+](=O)[O-])c2[nH]1 (stereo unspecified)	-2.7%	1.8	6%	12	-5	-1%[15.4 µM]	-16%
O=C(NC1CCCCC1)c1cc(Cl)ccc1[N+](=O)[O-]	28µM*	1.1	4%	-5	-7	-9%[15.4 µM]	12%
Cc1ccc(S(=O)(=O)N2CC(C)N(S(C)(=O)=O)C2)cc1 (stereo unspecified)	x	-2.2	3%	-1	4	6%[15.4 µM]	0%
c1ccc2c(CN3CCCCC3)csc2c1	-2.0%	4.8	6%	6	-40	10%	9%
CC1(c2ccccc2)CC(C)(C)N(C(N)=O)c2ccccc21 (stereo unspecified)	-0.2%	-8.8	-4%	6	-24	-23%	-10%
CC(C)C(=O)N1CCN(c2ccccc2NC(=O)COc2ccc(C3CCCCC3)cc2)CC1	-5.6%	x	-6%	-5	13	14%	-3%
Cc1ccc(S(=O)(=O)N(CC(=O)Nc2cccc([N+](=O)[O-])c2)Cc2ccc(Cl)cc2)cc1	-1.8%	1.0	20%	5	-24	1%	4%
Cc1ccc(CNc2ncnc3cc(Cl)ccc23)o1	-0.6%	1.5	-15%	-5	-1	2%	-9%
C=CCOc1cccc(C2c3c(oc4ccc(F)cc4c3=O)C(=O)N2CCCN2CCOCC2)c1 (stereo unspecified)	0.9%	0.2	21%	-11	4	-56%[inhibitor]	1%
Cc1ccc(COc2ccc(/C=N/NC(=O)CN3CCCCC3)cc2)cc1	0.9%	-4.3	5%	2	-9	5%[15.4 µM]	4%
COc1ccc(NC(=O)C2CCN(S(=O)(=O)c3ccc4c(c3)CC(C)N4C(C)=O)CC2)cc1OC (stereo unspecified)	-0.7%	3.3	28%	10	2	-10%	6%
Cc1cc(C(=O)OCC(=O)N2CCC(c3ccccc3)=N2)ccc1[N+](=O)[O-]	2.8%	x	x	-2	-15	u	1%
CC(C)N1CCc2c(sc(NC(=O)CN3C(=O)c4ccccc4C3=O)c2C(N)=O)C1	0.0%	-11	17%	-2	-22	-13%	7%
O=C(N[C@H](CO)Cc1ccccc1)c1ccco1	-0.6%	x	x	x	-10	u	9%
Cc1nc(Nc2ccc(Cl)cc2)c(C#N)c(=O)[nH]1	0.4%	-1.2	14%	-3	-3	-1%	-1%
COCCNS(=O)(=O)c1cc(OC)ccc1OC	x	1.1	9%	2	-4	-4%[15.4 µM]	x
Cc1ccccc1NC(=S)N(Cc1ccco1)C(C)c1ccccn1 (stereo unspecified)	x	0.0	79µM*	-5	0	2%[15.4 µM]	8%
COc1ccc([N+](=O)[O-])cc1N(CC(=O)NCCSc1ccccc1)S(C)(=O)=O	x	3.5	19%	0	-10	-3%[15.4 µM]	-7%
CCn1c(N2CCN(S(=O)(=O)c3ccccc3)CC2)nc2ccccc21	-0.9%	-4.9	5%	-10	-1	2%	-16%
O=C(Nc1cc(Cl)ccc1-n1cncn1)C1CC1	x	x	x	6	-2	28%[15.4 µM]	10%

Reformatted with two lines to a compound: 14 of the compounds above.
Below each SMILES: ClpP mod | Menin-MLL FL inh | Sfp PPTase inh | TRPV1 PAM | D2 potentiator | gsp ag | gsp antag
Cc1ccc(S(=O)(=O)N(CC(=O)Nc2cccc([N+](=O)[O-])c2)Cc2ccc(Cl)cc2)cc1
 : -1.8% | 1.0 | 20% | 5 | -24 | 1% | 4%
Cc1ccc(CNc2ncnc3cc(Cl)ccc23)o1
 : -0.6% | 1.5 | -15% | -5 | -1 | 2% | -9%
C=CCOc1cccc(C2c3c(oc4ccc(F)cc4c3=O)C(=O)N2CCCN2CCOCC2)c1 (stereo unspecified)
 : 0.9% | 0.2 | 21% | -11 | 4 | -56%[inhibitor] | 1%
Cc1ccc(COc2ccc(/C=N/NC(=O)CN3CCCCC3)cc2)cc1
 : 0.9% | -4.3 | 5% | 2 | -9 | 5%[15.4 µM] | 4%
COc1ccc(NC(=O)C2CCN(S(=O)(=O)c3ccc4c(c3)CC(C)N4C(C)=O)CC2)cc1OC (stereo unspecified)
 : -0.7% | 3.3 | 28% | 10 | 2 | -10% | 6%
Cc1cc(C(=O)OCC(=O)N2CCC(c3ccccc3)=N2)ccc1[N+](=O)[O-]
 : 2.8% | x | x | -2 | -15 | u | 1%
CC(C)N1CCc2c(sc(NC(=O)CN3C(=O)c4ccccc4C3=O)c2C(N)=O)C1
 : 0.0% | -11 | 17% | -2 | -22 | -13% | 7%
O=C(N[C@H](CO)Cc1ccccc1)c1ccco1
 : -0.6% | x | x | x | -10 | u | 9%
Cc1nc(Nc2ccc(Cl)cc2)c(C#N)c(=O)[nH]1
 : 0.4% | -1.2 | 14% | -3 | -3 | -1% | -1%
COCCNS(=O)(=O)c1cc(OC)ccc1OC
 : x | 1.1 | 9% | 2 | -4 | -4%[15.4 µM] | x
Cc1ccccc1NC(=S)N(Cc1ccco1)C(C)c1ccccn1 (stereo unspecified)
 : x | 0.0 | 79µM* | -5 | 0 | 2%[15.4 µM] | 8%
COc1ccc([N+](=O)[O-])cc1N(CC(=O)NCCSc1ccccc1)S(C)(=O)=O
 : x | 3.5 | 19% | 0 | -10 | -3%[15.4 µM] | -7%
CCn1c(N2CCN(S(=O)(=O)c3ccccc3)CC2)nc2ccccc21
 : -0.9% | -4.9 | 5% | -10 | -1 | 2% | -16%
O=C(Nc1cc(Cl)ccc1-n1cncn1)C1CC1
 : x | x | x | 6 | -2 | 28%[15.4 µM] | 10%
